D2 ag – activates the human D2 dopamine receptor; 360,000 tested, 0.084% active; AID 624465; P14416; DiscoveRx PathHunter D2 beta-arrestin, luminescence, 90 min; 100% = 57 uM dopamine signal; activation, % (concentration not given with the values); in the data active = activation above about 40%; inconclusive = about 15% to 40%; inactive = below about 15%; further: compound concentration not given in the record; the text of the record calls up to 30% inactive
Target sequence (P14416 whole entry, looked up): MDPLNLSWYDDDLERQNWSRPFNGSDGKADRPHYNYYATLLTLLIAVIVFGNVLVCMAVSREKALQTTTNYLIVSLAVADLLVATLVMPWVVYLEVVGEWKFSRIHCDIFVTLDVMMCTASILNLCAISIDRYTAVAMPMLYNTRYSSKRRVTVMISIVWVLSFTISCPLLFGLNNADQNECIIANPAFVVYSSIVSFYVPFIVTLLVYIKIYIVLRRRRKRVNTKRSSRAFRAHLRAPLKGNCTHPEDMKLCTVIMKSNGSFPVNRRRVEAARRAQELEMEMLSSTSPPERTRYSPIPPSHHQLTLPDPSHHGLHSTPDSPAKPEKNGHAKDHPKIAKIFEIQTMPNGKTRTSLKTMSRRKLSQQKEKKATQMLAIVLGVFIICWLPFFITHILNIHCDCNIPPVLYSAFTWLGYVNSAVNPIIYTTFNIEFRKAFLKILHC
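DiscoveRx PathHunter D2 beta-arrestin cells (2,100/well) attached overnight, then compound-stimulated 90 min at 37 C in HBSS/10 mM HEPES/0.1% Tween-20 buffer; beta-galactosidase complementation read by luminescence after 1 h at ambient temperature. Dopamine 57 uM final (EC100) as control.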
gsp ag – agonists of gsp mutant (McCune-Albright syndrome); 340,000 tested, 0.13% active; Potency, µM (series often up to 76.9 µM), for inactives: at the highest dose activation (cAMP increase), actives largely listed as activators; gsp mutant cells, cAMP HTRF, 30 min; control for the full effect not named in the record; AID 624287; active = well fitted activation curve with a large enough effect; inconclusive = small, poorly fitted or top-dose-only effect, or another doubt; inactive = no such curve, though single readings can be large or run the other way; cell line not stated here;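 further: phosphodiesterase inhibitor Ro 20-1724 added with compounds to block cAMP breakdown; potency means the concentration at half of the fitted maximal effect; nearly all actives have a fitted effect of over 60% in size; about a fifth of the inactives were tested at one dose only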
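Cells stably selected in G418 were plated at 2000/well, grown 16-24 hr, then given compounds in DMSO with the PDE inhibitor […] (300 uM solution added) for 30 min at 37C; cAMP was read by HTRF.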
CtBP-E1A inh – inhibitors of CtBP/E1A interaction | AlphaScreen GST-E1A/His-CtBP binding, 1536-well; active compounds read low; control for the full effect not named in the record | AID 651724 | activity change, % (concentration not given with the values) | 340,000 tested, 0.49% active; in the data active means activity change below about -65%; inconclusive means about -30% to -65%; inactive means above about -30%; further: on the % scale 0 is the no-effect control and ±100 the full control effect
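Steps: dispense buffer (Tris pH 8.0, NaCl 300 mM, TCEP 1 mM, BSA, Tween 20); add 5X protein mix (GST-E1A, His-CtBP, 125 nM each); pin 23 nL compound; 2 h at 37 °C, dark; add 5X beads (50 ug/mL); 1 h; read.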
Six1-Eya2 inh – blocks human Six1 binding to Eya2; activity change, % (concentration not given with the values); 360,000 tested, 0.56% active; AlphaScreen GST-Six1/His-Eya2 binding, biochemical; active compounds read low; control for the full effect not named in the record; AID 651725; in the data active = activity change below about -65%; inconclusive = about -30% to -65%; inactive = above about -30%; further: on the % scale 0 is the no-effect control and ±100 the full control effect
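Six1/Eya2 binding was read as AlphaScreen signal after compounds were pinned into GST-Six1 plus His-tagged Eya2 (5X stock 250/500 nM) in pH 8.0 Tris/NaCl/TCEP buffer, beads added, then incubated 1 h, 37 C, dark.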
D2 potentiator – human D2 receptor positive allosteric modulation; potentiation, % (test concentration not listed); DiscoveRx D2 beta-arrestin cells, luminescence, 90 min; 100% = 57 uM dopamine signal; 360,000 tested, 0.23% active; AID 624464; active = potentiation of 50% or more; inconclusive = 30% to 50%; inactive = 30% or less;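 further: compound concentration not given in the record; tested on top of an EC20 dose of dopamine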
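D2 cells co-treated with compound plus 50 nM dopamine (EC20) for 90 min at 37 deg C to detect potentiation. Beta-arrestin recruitment was read as enzyme-fragment luminescence after 1 h at ambient temperature. Full response was set by 57 uM dopamine.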
gsp antagonist – antagonists of gsp mutant (McCune-Albright syndrome); Potency, µM (top dose mostly 76.9 µM), inactives show at the top dose activity change, negative = inhibition, actives largely listed as inhibitors; gsp-mutant cells, cAMP HTRF, 30 min; control for the full effect not named in the record; 340,000 tested, 0.4% active; active = falling curve of any shape with a large fitted effect; inconclusive = falling curve, mostly with a smaller effect; inactive = flat or rising curve; cell line not stated here;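 further: intracellular cAMP measured with PDE inhibitor Ro 20-1724 present during compound exposure; potency means the concentration at half of the fitted maximal effect; on the % scale 0 is the no-effect control and ±100 the full control effect; nearly all actives have a fitted effect of over 65% in size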
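G418-selected cells were plated in DMEM/10% FBS for 16-24 h at 37C, then treated with compounds plus the PDE inhibitor […] (300 uM solution added) for 30 min at 37C. Intracellular cAMP was measured by HTRF after 30 min lysis at room temperature.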
Active calls of the source: *; ? = inconclusive; / = not tested or not shown; [ ] = remark or other dose.

[1] Cn1c(CCN2CCCC2)nc2cc(NC(=O)COc3ccc(Cl)cc3)ccc21
[2] O=C(Cn1nc(-c2ccco2)ccc1=O)Nc1ccc(Cl)c(Cl)c1
[3] CC(C)CCNc1nc2c(c(=O)[nH]c(=O)n2C)n1CC(O)COC(C)C (stereo not drawn)
[4] CCC(C(=O)c1ccc(O)cc1)c1ccccc1 (stereo not drawn)
[5] COc1ccc(NC(=O)N2CCCC(C(=O)Nc3ccccc3OC)C2)cc1 (stereo not drawn)
[6] Cc1noc(C)c1NC(=O)N(C)C[C@H]1Oc2c(NC(=O)C3CC3)cccc2C(=O)N([C@H](C)CO)C[C@@H]1C
[7] CCOC(=O)c1c(C)[nH]c(C(=O)COC(=O)c2ccc([N+](=O)[O-])o2)c1C
[8] Cc1ccc(/C=C2/NC(=O)N(Cc3ccccc3F)C2=O)o1
screen / no.	1	2	3	4	5	6	7	8
D2 ag	-2.2	3.0	-0.4	-2.0	2.9	-2.3	?	-4.6
gsp ag	-5.9%	-1.2%[15.4 µM]	?	22.6%	-31.4%[inhibitor]	/	11.5%[15.4 µM]	1.7%
CtBP-E1A inh	-4.0	-15.2	1.4	2.1	5.3	1.6	2.5	-7.4
Six1-Eya2 inh	-4.1	-6.2	-5.1	4.4	6.7	6.3	2.6	-4.1
D2 potentiator	-27.4	-5.5	-23.7	-8.2	-2.1	-2.7	27.9	-49.5
gsp antagonist	/	-23.2%	-12.6%	-4.6%	1.7%	6.8%	6.5%	9.1%

[9] CC(CCc1ccccc1)NC(=O)CCNS(=O)(=O)c1ccccc1 (stereo not drawn)
[10] Cc1noc(C)c1S(=O)(=O)N1CCN(c2ccccc2)CC1
[11] Cc1ccc(C)c(SCC(=O)Nc2oc(C)c3c(C)n[nH]c(=O)c23)c1
[12] CC(C)(Oc1ccc(Cl)cc1)C(=O)OCC(=O)NCCc1ccc(S(N)(=O)=O)cc1
[13] O=C(Nc1cccc(-n2cnnn2)c1)c1ccco1
[14] COc1ccc(NS(=O)(=O)c2cc(NC(=O)[C@@H](NC(N)=O)C(C)C)ccc2C)cc1
[15] Cc1ccc(OCCSc2nnc(NC(=O)c3ccco3)s2)cc1
[16] COc1ccc(C2C(C(=O)Nc3ccccc3OC)=C(C)Nc3ncnn32)cc1 (stereo not drawn)
screen / no.	9	10	11	12	13	14	15	16
D2 ag	1.0	-7.2	-2.5	-0.8	-3.2	0.6	-1.7	-1.0
gsp ag	1.8%[15.4 µM]	0.9%	-29.1%	-19.6%	27.7%	5.8%	12.6%	-45.2%[inhibitor]
CtBP-E1A inh	10.1	4.6	-1.5	-12.8	-0.6	/	1.7	0.7
Six1-Eya2 inh	1.7	4.8	0.5	5.4	-3.2	-1.0	0.7	7.3
D2 potentiator	0.0	-6.8	-14.5	-10.4	-12.7	-8.7	-1.4	-2.0
gsp antagonist	12.3%	-7.4%	1.1%	7.2%	-11.5%	5.4%	21.1%	-1.2%

[17] CC1=C(C(=O)N(C(C)C)C(C)C)CC(CC(=O)NC(c2ccccc2)c2ccccc2)C(=O)N1Cc1ccc(C(C)(C)C)cc1 (stereo not drawn)
[18] Cc1ccc(NC(=O)CN2CCOCC2)cc1
[19] COC(=O)Cc1csc(NC(=O)c2ccc3ncsc3c2)n1
[20] C/C(=N\NC(=O)COc1ccc(C)cc1[N+](=O)[O-])c1cccs1
[21] CCN(Cc1ccccc1)S(=O)(=O)c1ccc2c(c1)NC(=O)CC(=O)N2
[22] CC(C)(c1ccccc1)c1ccc(OCCn2cnc3ccccc3c2=O)cc1
[23] O=C(O)C1CCCCN1C(=O)c1ccc(S(=O)(=O)N2CCCC2)cc1 (stereo not drawn)
[24] Cc1ccc(NC(=O)CNS(=O)(=O)c2cccs2)cc1F
screen / no.	17	18	19	20	21	22	23	24
D2 ag	-5.8	-2.3	2.7	-5.1	3.2	-3.8	-1.2	-0.4
gsp ag	/	14.0%[15.4 µM]	-27.7%	27.2%[15.4 µM]	10.3%	4.5%	-0.4%[15.4 µM]	-10.3%[15.4 µM]
CtBP-E1A inh	1.5	8.2	-10.1	7.5	/	2.7	5.6	-4.7
Six1-Eya2 inh	-7.3	1.8	-15.9	4.8	8.2	0.8	-0.7	14.5
D2 potentiator	-7.5	-2.9	-0.1	-7.0	-8.7	-3.2	-2.1	-5.5
gsp antagonist	/	14.0%	-8.6%	16.1%	-2.0%	-21.7%	10.6%	-13.9%

[25] N#Cc1c(-c2ccccc2)cc(C2CC2)nc1SCC(=O)c1cccs1
[26] CC1=CC(C)(C)NC(=S)N1c1ccc(C)cc1C
[27] Cc1cc(OCc2cc3c(cc2Cl)OCO3)c2c(C)cc(=O)oc2c1
[28] Cc1cc(C)c2nc(N3CCC(C(=O)NCC4CCCO4)CC3)sc2c1 (stereo not drawn)
[29] CCOc1ccc2c(c1)C(C)=CC(C)(C)N2S(=O)(=O)c1ccc(C)cc1
[30] CC(=O)Nc1ccc(C(=O)Nc2ccc(S(=O)(=O)Nc3nccc(C)n3)cc2)cc1
[31] CCCCNC(=O)CN1CCN(Cc2ccc3cc(OC)ccc3c2)CC1
[32] COc1ccc(/C=C/C(=O)N(C)C2CCS(=O)(=O)C2)cc1 (stereo not drawn)
screen / no.	25	26	27	28	29	30	31	32
D2 ag	1.0	-3.9	-5.0	0.2	1.0	0.6	-9.9	0.5
gsp ag	2.9%	-7.5%[15.4 µM]	-21.9%	-3.9%	0.0%	-7.5%	18.7%	0.4%[15.4 µM]
CtBP-E1A inh	3.1	-17.1	/	-1.4	12.2	-2.1	/	8.7
Six1-Eya2 inh	12.5	-6.6	-1.8	1.8	0.7	3.2	5.2	-7.3
D2 potentiator	-12.2	-5.5	-0.6	-7.4	-2.0	-2.4	-17.0	-4.9
gsp antagonist	?	7.4%	-0.9%	2.0%	28.8%	1.2%	1.5%	7.9%

Some of the entries so far, as labelled records.
[15] Cc1ccc(OCCSc2nnc(NC(=O)c3ccco3)s2)cc1
  D2 ag: -1.7
  gsp ag: 12.6%
  CtBP-E1A inh: 1.7
  Six1-Eya2 inh: 0.7
  D2 potentiator: -1.4
  gsp antagonist: 21.1%
[32] COc1ccc(/C=C/C(=O)N(C)C2CCS(=O)(=O)C2)cc1 (stereo not drawn)
  D2 ag: 0.5
  gsp ag: 0.4%[15.4 µM]
  CtBP-E1A inh: 8.7
  Six1-Eya2 inh: -7.3
  D2 potentiator: -4.9
  gsp antagonist: 7.9%

The results go on:
[33] CCN1C(C)=C(C)S/C1=C1\SC(=S)N(N)C1=O
[34] O=C1NC(c2ccccc2)=NC1(NS(=O)(=O)c1ccccc1)C(F)(F)F (stereo not drawn)
[35] CCN(CC)CCCN=C1N[C@@H](c2cccc(C(F)(F)F)c2)C(C(=O)OC)=C(C)N1CC
[36] O=C(Nc1cccc(O)c1)c1cccc(S(=O)(=O)N2CCCC2)c1
[37] O=C(COC(=O)c1ccccc1C(=O)c1ccc(Cl)cc1)NCc1ccccc1
[38] CN1CCN(C(=O)Nc2ccc3c(c2)N(C)C(=O)c2ccccc2S3)CC1
[39] CCOC(=O)c1nn(-c2ccccc2)c(C(=O)OCC)c1N
[40] O=C(Nc1ccccc1)C1=C[C@@H](c2ccc(Br)cc2)C[C@@H](OCCCCO)O1
screen / no.	33	34	35	36	37	38	39	40
D2 ag	-3.5	-1.6	-2.9	-1.4	-6.3	-1.6	-0.5	-0.1
gsp ag	-14.1%[15.4 µM]	14.4%	-8.6%	0.4%	-46.7%[inhibitor]	9.0%[15.4 µM]	18.6%	2.8%
CtBP-E1A inh	-9.0	-1.2	5.6	?	/	6.7	9.8	-1.2
Six1-Eya2 inh	6.6	5.0	7.3	-72.3*	-1.1	1.3	1.5	0.1
D2 potentiator	-52.2	-16.2	-6.3	1.7	-2.2	-3.4	7.3	-7.3
gsp antagonist	/	6.7%	11.1%	0.7%	?	-4.9%	4.7%	-10.1%

Six1-Eya2 inh: entries above that show a hit.
[36] O=C(Nc1cccc(O)c1)c1cccc(S(=O)(=O)N2CCCC2)c1
screen / no.	36
D2 ag	-1.4
gsp ag	0.4%
CtBP-E1A inh	?
Six1-Eya2 inh	-72.3*
D2 potentiator	1.7
gsp antagonist	0.7%

The list continues:
[41] O=C(CN1CCCC1)Nc1nc(-c2ccc(Cl)cc2)cs1
[42] COC(=O)C1=C(C)N(CC2CC2)C(=O)N[C@H]1c1ccc(Br)cc1
[43] Fc1cccc(NC(=S)NCc2ccc(Cl)cc2)c1
[44] C[C@@H](CSc1ccc(Br)cc1)CN1CC[C@H](C(C)(C)C)CCC1=O
[45] CN1CCN(c2ccc(NS(=O)(=O)c3ccc(Cl)cc3)cn2)CC1
[46] CCOC(=O)CSc1nc2sc3c(c2c(=O)n1-c1ccccc1)CCN(C(C)C)C3
[47] COC(CNC(=O)C(=O)Nc1cc2c3c(c1)CCN3C(=O)CC2)OC
[48] CNC(=O)Nc1cccc2cccnc12
screen / no.	41	42	43	44	45	46	47	48
D2 ag	-2.9	2.9	-4.1	-2.8	-1.6	-5.7	1.1	-1.1
gsp ag	/	-4.8%	-25.4%	/	10.2%	-4.1%	0.7%	-15.0%[15.4 µM]
CtBP-E1A inh	-20.7	-1.9	11.6	6.4	4.6	-4.4	14.2	-0.7
Six1-Eya2 inh	-9.1	-4.4	8.5	11.7	6.6	-10.6	-7.6	-0.3
D2 potentiator	-5.9	-1.0	-4.8	-10.2	-7.6	-6.0	-7.8	-2.9
gsp antagonist	/	-6.0%	-0.9%	-25.9%	2.8%	5.2%	-7.1%	5.9%

Full records, looked up by structure. Values in the order: D2 ag, gsp ag, CtBP-E1A inh, Six1-Eya2 inh, D2 potentiator, gsp antagonist
Entry for O=C(Nc1cccc(O)c1)c1cccc(S(=O)(=O)N2CCCC2)c1 = -1.4, 0.4%, ?, -72.3*, 1.7, 0.7%
Entry for CCOC(=O)c1nn(-c2ccccc2)c(C(=O)OCC)c1N = -0.5, 18.6%, 9.8, 1.5, 7.3, 4.7%
Entry for C[C@@H](CSc1ccc(Br)cc1)CN1CC[C@H](C(C)(C)C)CCC1=O = -2.8, /, 6.4, 11.7, -10.2, -25.9%

(list continues)
[49] CC(C)CCN1NC2(CCC(C)CC2)NC1=S (stereo not drawn)
[50] O=C(/C=C/c1ccc(N2CCCCC2)c([N+](=O)[O-])c1)c1ccc(S(=O)(=O)N2CCCC2)cc1
[51] CC1(NC(=S)Nc2ccc(NC(=S)NC3(C)CCS(=O)(=O)C3)cc2)CCS(=O)(=O)C1 (stereo not drawn)
[52] Cn1c(=O)n(C)c2cc(NS(=O)(=O)c3ccc(C(C)(C)C)cc3)ccc21
screen / no.	49	50	51	52
D2 ag	3.8	2.8	-4.5	-3.4
gsp ag	0.2%[15.4 µM]	2.5%	7.7%	-27.7%[15.4 µM]
CtBP-E1A inh	8.3	1.7	-23.0	-1.6
Six1-Eya2 inh	33.8	-4.6	-1.5	-7.5
D2 potentiator	7.3	12.3	-10.4	6.4
gsp antagonist	-24.7%	-15.5%	7.8%	15.6%

Bioassay records from PubChem BioAssay.

An unsorted share of the library, and some 1.4% of all compounds hit somewhere here.
